Screening data: PubChem, National Center for Advancing Translational Sciences (NCATS)
VDR inh = Inhibitors of the vitamin D receptor (VDR): qHTS; 0.93% of 400,000 active; Potency, µM, without a hit: max response, negative = inhibition, most hits filed as inhibitors; AID 504847, 2011; Vitamin D3 receptor (Homo sapiens), P11473; VDR-SRC2-3 peptide fluorescence polarization, 2 h; active = well fitted inhibition curve with a large enough effect; inconclusive = small, poorly fitted or top-dose-only effect, or another doubt; inactive = no such curve, though single readings can be large or run the other way; note: series mostly up to about 120 µM
Target sequence (P11473 whole entry, looked up): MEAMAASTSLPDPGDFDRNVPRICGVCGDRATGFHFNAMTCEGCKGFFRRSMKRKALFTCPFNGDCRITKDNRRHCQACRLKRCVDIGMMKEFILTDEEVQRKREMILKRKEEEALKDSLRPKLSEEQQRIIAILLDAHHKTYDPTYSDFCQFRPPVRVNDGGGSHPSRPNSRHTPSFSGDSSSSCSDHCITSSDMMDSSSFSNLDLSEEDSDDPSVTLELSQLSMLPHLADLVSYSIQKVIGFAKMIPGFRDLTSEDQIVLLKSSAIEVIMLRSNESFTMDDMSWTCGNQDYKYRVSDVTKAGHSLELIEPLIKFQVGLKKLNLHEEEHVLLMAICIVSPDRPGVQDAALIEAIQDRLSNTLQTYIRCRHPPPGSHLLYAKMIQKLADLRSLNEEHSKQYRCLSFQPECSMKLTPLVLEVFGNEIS
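After 23 nl compound addition and a short centrifugation, plates sat for 2 hours at ambient temperature; polarization of fluorescence then indicated loss of VDR binding to peptide SRC2-3.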
The depositor's hits bear a star; u = inconclusive; & = joins results of further samples. % is set by controls: 0 for no effect and ±100 for the full control effect; potency is the fitted concentration of half-maximal effect. This is a subset; rates above refer to the full screens.

VDR inh,Structure
0.2%,CN(Cc1ccco1)C(=O)C1CCCN(c2ncnc3c2nc2n3CCCCC2)C1 (configuration not stated)
-1.3%,COc1ccc2c(c1OC)C(=O)N(c1nc(SC)n[nH]1)C2=O
-1.3%,Cc1nc2ccccc2c(=O)n1NC(=O)Cc1ccc(Br)cc1
-1.8%,CC1Cc2cc(S(=O)(=O)NCc3ccc(Cl)cc3)ccc2N1C(=O)C1CCC1 (configuration not stated)
-17.8%,CC(C)[C@H](NC(=O)c1ccccc1)C(=O)OCC(=O)c1ccccc1F
-2.0%,O=C(NC1CCCCC1)C(c1ccc(F)cc1)N(C(=O)c1csnn1)C1CC1 (configuration not stated)
-4.5%,Cc1ccc(/C=N/NC(=O)CNC(=O)COc2ccc(Cl)cc2)o1
0.7%,COc1cc(/C=N/c2oc(C)c(C)c2C#N)cc(Br)c1O
4.7%,COc1ccc(NC(=O)c2nc(SCc3ccc(F)cc3)ncc2Cl)cc1
3.3%,Cc1c(Cl)c([N+](=O)[O-])nn1CC(=O)NC1CCCCC1
9.1%,Cc1nnc(SCc2ccc(C(=O)O)cc2)s1
1.6%,O=C(CCN1C(=O)c2ccccc2C1=O)Nc1nc2ccccc2s1
-15.0%,Cc1cccc(C)c1OCc1cc(=O)n2ccsc2n1
-12.8%,CCC(=O)N1CCc2cc(S(=O)(=O)NC(C(=O)NC(C)c3ccccc3)C(C)C)ccc21 (configuration not stated)
2.8%,Cn1ccnc1Sc1nc2c(c(=O)n(C)c(=O)n2C)n1C
-5.7%,CCCSc1ccc([C@H]2N[C@@](Cc3ccccc3)(C(=O)OC)[C@H]3C(=O)N(C)C(=O)[C@@H]23)cc1
-2.5%,COC(=O)c1ccc(NC(=O)C(=O)NCCc2sc(-c3cccc(F)c3)nc2C)cc1
-2.5%,Cc1ccc(O)c(NC(=O)C2CCCN2C(=O)OCc2ccccc2)c1 (configuration not stated)
u,O=C(CSc1nc2ccccc2n1S(=O)(=O)c1ccccc1)N1CCCC1
2.1%,COc1cc2nc(CN3CCOCC3)n(CC(=O)N3CCCCCC3)c(=O)c2cc1OC
-26.1%,COc1cc(C(c2sc3nc(C)nn3c2O)N2CC(C)CC(C)C2)cc(OC)c1OC (configuration not stated)
-14.1%,Fc1ccccc1CNCc1ccc2c(c1)OCO2
-12.6%,CC1CCC(C(C)C)C(OC(=O)CSc2n[nH]c(=O)[nH]c2=O)C1 (configuration not stated)
9.5%,Cc1ccnc(NS(=O)(=O)c2cc(-c3cc(C)no3)ccc2C(C)C)c1
3.8%,NC(=O)CC(NC(=O)Cc1cccc2ccccc12)c1ccc(N2CCCCCCC2)c([N+](=O)[O-])c1 (configuration not stated)
-4.1%,O=C(NNC(=O)c1ccc2ccccc2c1)c1cccc(F)c1
-8.8%,Cc1cccc(Oc2nc(-c3cccc([N+](=O)[O-])c3)nc3ccccc23)c1C
-5.7%,CC1(C)C2CCC1(CS(=O)(=O)NCCc1c[nH]c3ccccc13)C(=O)C2 (configuration not stated)
-9.9%,CCCN1C/C(=C/c2ccc3c(c2)OCO3)C(=O)/C(=C/c2ccc3c(c2)OCO3)C1
u,CCOC(=O)c1cc(-c2ccccc2)sc1N
-15.2%,Cc1ccc(C(=O)c2oc3ccc(Cl)cc3c2NC(=O)CN2CCN(C)CC2)cc1
-11.8%&3.6%,Cc1cc(C)cc(NS(=O)(=O)c2cc3[nH]c(=O)c(=O)[nH]c3cc2C)c1
6.1%,Cn1nc(-c2ccc(C(=O)Nc3ccc(OC(F)(F)F)cc3)cc2)c2ccccc2c1=O
-9.1%,CC(=O)Nc1ccc(NC(=O)Nc2cccc(C)c2C)cc1
-14.5%,Cc1ccc(C(NC(=O)/C=C\c2ccc3c(c2)OCO3)C(=O)Nc2ccc3c(c2)OCO3)cc1 (configuration not stated)
9.2%,Cc1ccc2c(c1)c(C)c(C)n2CC(O)CN1CCCCC1C (configuration not stated)
3.5%,O=C(N/N=C/c1cccc(OCC(=O)N2CCCC2)c1)C(=O)Nc1ccccc1F
12.9%,COc1ccccc1Nc1ncnc2ccccc12
-2.4%,CCn1c(SCC(=O)Nc2ncc(C(F)(F)F)cc2Cl)nnc1-c1ccccc1
-23.7%,CCN(C(=O)CN1CCN(c2cccc(C(F)(F)F)c2)CC1)c1c(N)n(Cc2ccccc2)c(=O)[nH]c1=O
-14.2%&-14.5%,CCc1nn(CC(=O)NCCCN(CC)CC)c(=O)c2cc3sc(C)cc3n12
5.5%,COC(=O)CCCNc1ncccc1[N+](=O)[O-]
u,O=C(c1cccc(S(=O)(=O)N2CCOCC2)c1)N(CCO)Cc1ccccc1
15.8%,CC(=NCc1ccco1)c1c(C(F)(F)F)[nH]n(-c2nc3ccccc3s2)c1=O
-15.3%,COc1c(O)cc(O)c2c(=O)cc(-c3ccccc3)oc12
-11.3%,Cc1cc(OCC(=O)NCCCn2ccnc2)c2c(C)cc(=O)oc2c1
6.2%,CC1=C(C(=O)NCc2ccccc2)C(c2ccccc2OCC(N)=O)NC(=O)N1 (configuration not stated)
-8.8%,Cc1oc2cc(O)ccc2c(=O)c1Oc1ccc2ccccc2c1
5.4%,COC(=O)c1cc(OC)c(OC)cc1NC(=O)c1ccc(C)o1
-2.2%,O=C(CSc1nccn1-c1ccc(Cl)cc1)Nc1ccc(Cl)c(Cl)c1

New compounds follow:
VDR inh,Structure
-12.8%,CCCCCCSc1ccc(-c2nc3ccc(C)cn3c2NC2CCCCC2)cc1
-1.7%,CC(C)C[C@H](NC(=O)[C@H](O)[C@H](N)Cc1ccccc1)C(=O)O
-4.9%,COc1ccc(S(=O)(=O)NCCSCc2ccco2)cc1
22.3%,Cc1ccccc1NS(=O)(=O)c1ccc(C(=O)OCC(=O)NCC(C)C)cc1
21.5%,Cn1c(=O)n(C)c2cc(CNCc3ccc(F)cc3)ccc21
13.2%,COc1cccc(CN(CC(=O)NC2CCCC2)C(=O)Cn2nnc(-c3cccs3)n2)c1
-9.7%,COc1cccc(C(C(=O)NC2CCCC2)N(C(=O)c2ccco2)c2ccc(-n3cnnn3)c(C)c2)c1OC (configuration not stated)
-6.4%,COc1ccc(NC(=O)Cn2ncc(Cl)c(Cl)c2=O)cc1S(=O)(=O)N1CCOCC1
-13.3%,Cc1noc(C)c1-c1nc(Nc2ccncc2)c2ccccc2n1
-26.6%,O=C1c2ccc(Cl)cc2S(=O)(=O)c2cccc(C(=O)N3CCN(c4ccc(Cl)cn4)CC3)c21
-18.5%,COc1cc(-c2nc3sc(C)c(C)c3c(=O)o2)cc(OC)c1OC
-17.9%,Cc1ccc(S(=O)(=O)N2CCN(C(=O)c3cc(-c4cccs4)nn3-c3ccccc3)CC2)cc1
1.7%,COc1ccc(NS(=O)(=O)c2cnc[nH]2)cc1
-3.7%,COCCN1CC(CNC(=O)c2cc(COc3ccc(C)c(C)c3)on2)CC1=O (configuration not stated)
-3.0%,C=C1CC23C[C@H]4[C@@H]5[C@@]6(C)C[C@H](OC(=O)c7ccccc7)[C@@H](OC(C)=O)[C@]57[C@@H]2[C@@H](OC(C)=O)[C@H]1[C@@H](O)[C@H]3[C@H]7N4C6
-0.2%,COc1ccc(-c2c(C#Cc3ccsc3)c3ccccc3n2C)cc1
-5.6%,COc1ccc(NC(=O)c2ccc3c(c2)C(=O)N(CC2CCCO2)C3=O)cc1 (configuration not stated)
-18.7%,Cc1ccc(S(=O)(=O)Nc2nc(C)c(NC(=O)Nc3ccc(Cl)cc3Cl)s2)cc1
16.1%,O=C(COC(=O)c1cccnc1Cl)Nc1ccc2c(c1)OCCO2
-26.1%,CCOC(=O)C1=C(C)N(C[C@@H]2CC[C@@H](Cc3ccc(-c4ccccc4)cc3)O2)C(=O)NC1c1ccc(SCc2ccco2)c([N+](=O)[O-])c1 (some centres not stated)
7.4%,COc1ccccc1NC(=O)CSc1ccc2nnc(-c3ccccn3)n2n1
3.3%,O=C(CSc1ncnc2c1nnn2-c1ccc(F)cc1)NCC1CCCO1 (configuration not stated)
11.3%,Cc1ccc(Cl)c(OCC(=O)OCC(=O)c2ccc[nH]2)c1
6.2%,CN(C)C(=O)CCN1CCOCC1
-12.3%,CCc1cc(C(c2ccncc2)N2CCN(C)CC2)c(NC(=O)c2ccccc2)s1 (configuration not stated)
-3.8%,COc1ccc(-c2nc(CSCC(=O)N3CCN(c4cc(Cl)ccc4C)CC3)c(C)o2)cc1
-16.8%,O=[N+]([O-])c1cccc(/C=N/Nc2cc(N3CCOCC3)ncn2)c1
-5.2%,COC(=O)c1ccc(CSc2n[nH]c(-c3ccccc3)n2)o1
6.1%,CCN(CC)S(=O)(=O)c1ccc(F)c(C(=O)NCCC(C)C)c1
5.1%,COc1ccccc1CNC(=O)CSc1nc(N)c(C#N)c(-c2cccs2)c1C#N
13.0%,Cc1ccc(-n2ncc3c(N4CCN(Cc5ccccc5)CC4)ncnc32)cc1Cl
-17.1%,CCCc1cc(N2CCCC(C(=O)NCc3ccc4c(c3)OCO4)C2)n2ncnc2n1 (configuration not stated)
-8.9%,CCOCC(=O)Nc1nc2ccc(S(C)(=O)=O)cc2s1
-0.6%,CCNc1c2c3c(cccc3n(C)c1=O)C(=O)c1ccccc1-2
-5.2%,COC(=O)C1=C[C@@H](C(=O)OC)[C@@H]2C3=C(C(=O)[C@@]2(C)NC(=O)c2ccccc2)[C@H](C)[C@@H]2C(=O)N(c4ccccc4)C(=O)[C@@H]2[C@@H]3C1
u,Cc1ccccc1C(=O)N1CCC2CC1c1cc(-c3ccc(F)cc3)ccc12 (configuration not stated)
-11.8%,COc1ccc([C@@H]2CC=C(C(=O)O)[C@H](c3ccccc3)N2S(=O)(=O)c2ccc(C)cc2)cc1OC
17.6%,O=C(N/N=C/c1cc2c(cc1Br)OCO2)c1cc2ccccc2o1
11.7%,CCOC(=O)C1CCCN(C(=O)CSc2ccccc2)C1 (configuration not stated)
-2.8%,CN(C(=O)c1cccc(Nc2ccc(-c3ccc4c(c3)OCCO4)nn2)c1)C1CCCCC1
18.5%,CNC(=O)N(O)C1N(/N=C/c2c(F)cccc2Cl)C(=S)SC1(C)C (configuration not stated)
12.9%,CSc1nc2n(n1)C(c1cccs1)C1=C(CCCC1=O)N2 (configuration not stated)
-6.0%,CC(=NCC1CCCO1)c1c(O)[nH]c(=O)[nH]c1=O (configuration not stated)
-9.1%,CCOCCCn1c(SCC(=O)Nc2ccccc2OC)nc2c(oc3ccccc32)c1=O
0.9%,COc1ccc(C(=O)OC(C)C(=O)NCC2CCCCC2)cc1S(=O)(=O)N1CCOCC1 (configuration not stated)
5.5%,CCC(C)(C)NC(=O)C(c1ccc(F)cc1)N(CCOC)C(=O)CCC(=O)Nc1nccs1 (configuration not stated)
15.1%,Cc1ccnc(NC2(C(F)(F)F)N=C(c3ccccc3)NC2=O)c1 (configuration not stated)
-6.4%,Cc1ccc(NC(=O)C2CCN(S(=O)(=O)c3c(C)noc3/C=C/c3ccco3)CC2)cc1C
-17.6%,CCN(CC)S(=O)(=O)c1ccc(N2CCOCC2)c(NC(=O)CC2OC(=O)c3ccccc32)c1 (configuration not stated)
9.7%,O=C(O)c1ccc(S(=O)(=O)N2CCCCCC2)cc1

Four entries from above, with each value named.
> CCNc1c2c3c(cccc3n(C)c1=O)C(=O)c1ccccc1-2
  VDR inh: -0.6%

> COC(=O)C1=C[C@@H](C(=O)OC)[C@@H]2C3=C(C(=O)[C@@]2(C)NC(=O)c2ccccc2)[C@H](C)[C@@H]2C(=O)N(c4ccccc4)C(=O)[C@@H]2[C@@H]3C1
  VDR inh: -5.2%

> Cc1ccccc1C(=O)N1CCC2CC1c1cc(-c3ccc(F)cc3)ccc12 (configuration not stated)
  VDR inh: u

> COc1ccc([C@@H]2CC=C(C(=O)O)[C@H](c3ccccc3)N2S(=O)(=O)c2ccc(C)cc2)cc1OC
  VDR inh: -11.8%

Part of the list above, set out differently.
CCOCC(=O)Nc1nc2ccc(S(C)(=O)=O)cc2s1
- VDR inh: -8.9%

Cc1ccccc1C(=O)N1CCC2CC1c1cc(-c3ccc(F)cc3)ccc12 (configuration not stated)
- VDR inh: u

CCOCCCn1c(SCC(=O)Nc2ccccc2OC)nc2c(oc3ccccc32)c1=O
- VDR inh: -9.1%

CCN(CC)S(=O)(=O)c1ccc(N2CCOCC2)c(NC(=O)CC2OC(=O)c3ccccc32)c1 (configuration not stated)
- VDR inh: -17.6%

Following part
VDR inh,Structure
16.6%,Cc1onc(-c2ccccc2Cl)c1C(=O)N1CCOC12CCN(c1cccc(F)n1)CC2
u,Cc1cc(OCC(=O)NC(Cc2ccc(Cl)cc2)C(=O)O)c2c(C)c(C)c(=O)oc2c1 (configuration not stated)
-1.1%,Cc1cc(C)cc(NC(=O)c2cc(C)nc3c2c(C)nn3-c2ccccc2)c1
-10.4%,Cc1ccc(NC(=O)CSc2nnc(-c3cnccn3)n2Cc2ccco2)cc1C
-27.2%,CN(C)c1ncnc2c1C(c1ccccc1)C(C)(C)O2 (configuration not stated)
14.8%,COc1cccc(-n2ccn(CC(=O)Nc3ccccc3F)c(=O)c2=O)c1
1.7%,O=C(O)CO
12.5%,COC(=O)CNC(=O)Nc1cc(C(=O)NCc2ccc(C)cc2)ccc1N1CCCC1
-5.9%,CCCCCc1c(C)nc(NCc2ccccc2)[nH]c1=O
-23.0%,O=C(c1ccc2c(c1)N(Cc1ccccc1F)C(=O)c1ccccc1S2(=O)=O)N1CCN(c2ccccc2F)CC1
0.7%,O=C(Cc1ccccc1)N(Cc1cccnc1)c1nc2c(Cl)cccc2s1
-19.1%,CCCCc1ccc(NS(=O)(=O)c2cccc(C(=O)N3CCNC(=O)C3)c2)cc1
u,CCCc1nnc(NC(=O)c2c(O)c3cccc4c3n(c2=O)CCC4)s1
9.7%,O=C(NCc1ccco1)C(c1ccncc1)N(C(=O)Cn1nnc2ccccc21)c1ccccc1 (configuration not stated)
-10.0%,O=C(Nc1ccc(F)cc1)C(Sc1nc2ccccc2[nH]1)c1ccccc1 (configuration not stated)
